Screening data: PubChem BioAssay, National Center for Advancing Translational Sciences (NCATS)
TRPV1 PAM: potentiators of human vanilloid receptor 1 (TRPV1); AID 540277; 320,000 compounds, 0.02% hits; TRPV1-expressing cells, Fluo-8 calcium influx, capsaicin EC20 potentiation; host cell line not named in the record; control for the full effect not named in the record; potentiation, % at 8.33 µM; active means potentiation above 80%; inconclusive means 30% to 80%; inactive means below 30%; note: 0% is about no effect
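Fluo-8 calcium influx in TRPV1-expressing cells, kinetic read (ex 480/em 520 nm). Compound added and read 3 min for agonist activity, followed by capsaicin at EC20 final and 2 min further read for enhancement.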
D2 potentiator: potentiates the human D2 dopamine receptor allosterically; P14416; DiscoveRx D2 beta-arrestin cells, luminescence, 90 min; 100% = 57 uM dopamine signal; potentiation, % (concentration not given with the values); 360,000 compounds, 0.23% hits; AID 624464; active = potentiation of 50% or more; inconclusive = 30% to 50%; inactive = 30% or less;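 note: tested on top of an EC20 dose of dopamine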
Target sequence (P14416 whole entry, looked up): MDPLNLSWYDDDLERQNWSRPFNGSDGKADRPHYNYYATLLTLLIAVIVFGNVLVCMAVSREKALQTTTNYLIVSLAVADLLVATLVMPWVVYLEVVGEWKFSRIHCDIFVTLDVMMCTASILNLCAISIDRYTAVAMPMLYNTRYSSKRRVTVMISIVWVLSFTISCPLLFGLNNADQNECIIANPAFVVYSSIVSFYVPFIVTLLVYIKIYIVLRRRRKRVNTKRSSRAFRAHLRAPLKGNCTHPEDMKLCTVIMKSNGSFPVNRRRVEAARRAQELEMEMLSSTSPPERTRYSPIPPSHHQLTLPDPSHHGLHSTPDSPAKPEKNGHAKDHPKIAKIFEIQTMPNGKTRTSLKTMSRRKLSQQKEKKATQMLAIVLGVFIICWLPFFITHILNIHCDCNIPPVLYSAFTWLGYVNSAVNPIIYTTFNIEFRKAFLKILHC
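PathHunter beta-arrestin assay in DiscoveRx D2 cells. Compounds were added with an EC20 of dopamine (50 nM final) for 90 min at 37 deg C. Luminescence was read 1 h after detection reagent, with 57 uM dopamine as the EC100 control.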
TRPML1 agonist: activates the human TRPML1 channel. AID 624414. Q9GZU1. 410,000 compounds, 0.12% hits. TRPML1-expressing cells, Ca2+ dye fluorescence, FDSS; host cell line not named in the record; reference of the full effect not given here. activation, % (concentration not given with the values); in the data active = activation above about 50%; inconclusive = about 30% to 50%; inactive = below about 30%; note: 0% is about no effect; the text of the record puts the active cut at 80%
Target sequence (Q9GZU1 whole entry, looked up): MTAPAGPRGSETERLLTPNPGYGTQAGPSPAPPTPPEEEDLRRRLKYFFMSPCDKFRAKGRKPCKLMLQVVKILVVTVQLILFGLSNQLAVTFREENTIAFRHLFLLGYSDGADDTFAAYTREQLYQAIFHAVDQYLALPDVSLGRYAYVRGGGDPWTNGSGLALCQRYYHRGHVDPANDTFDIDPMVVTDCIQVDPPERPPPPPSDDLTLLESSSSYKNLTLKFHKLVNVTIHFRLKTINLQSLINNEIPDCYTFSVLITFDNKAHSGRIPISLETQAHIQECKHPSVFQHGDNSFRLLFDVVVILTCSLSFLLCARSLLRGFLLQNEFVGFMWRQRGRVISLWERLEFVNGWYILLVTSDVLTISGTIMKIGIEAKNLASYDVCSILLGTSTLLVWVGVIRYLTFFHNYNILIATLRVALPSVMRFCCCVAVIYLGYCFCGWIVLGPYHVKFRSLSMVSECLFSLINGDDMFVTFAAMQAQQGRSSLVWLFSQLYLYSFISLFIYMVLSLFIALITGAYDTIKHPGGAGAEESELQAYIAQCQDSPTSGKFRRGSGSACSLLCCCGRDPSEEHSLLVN
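Cells: TRPML1-DL, 1X Tet inducer, ~16 h at 37 degrees C/5% CO2. Dye: ABD Ca8 no-wash + quencher, 45-90 min RT. Read: 10 s baseline, compound add, 110 s agonist phase; 54-4 EC80 (4uM final), 110 s antagonist phase.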
Six1-Eya2 blk: Six1/Eya2 interaction inhibition; Q15475+O00167; AlphaScreen GST-Six1/His-Eya2 binding, biochemical; hits give low values; control for the full effect not named in the record; activity change, % (test concentration not listed); 360,000 compounds, 0.56% hits; AID 651725; in the data active = activity change below about -65%; inconclusive = about -30% to -65%; inactive = above about -30%; note: % is set by controls: 0 for no effect and ±100 for the full control effect
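Compounds are tested against tagged Six1 and Eya2 proteins bridged by glutathione donor and nickel acceptor beads; after a one-hour incubation at 37 °C without light, AlphaScreen emission is recorded.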
CtBP-E1A blk: CtBP/E1A binding inhibition. AlphaScreen GST-E1A/His-CtBP binding, 1536-well; hits give low values; control for the full effect not named in the record. activity change, % (no concentration beside the values). 340,000 compounds, 0.49% hits. AID 651724; in the data active means activity change below about -65%; inconclusive means about -30% to -65%; inactive means above about -30%; note: % is set by controls: 0 for no effect and ±100 for the full control effect
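Protein mix (5X: 125 nM each GST-E1A, His-CtBP) was incubated with pinned compound 2 h at 37 deg C in dark, in 50 mM Tris pH 8.0 buffer with 300 mM NaCl. Glutathione donor and nickel acceptor beads followed; AlphaScreen signal read after 1 h.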
TRPML1 blocker: human mucolipin-1 channel inhibition. activity change, negative = inhibition, % (concentration not given with the values). 390,000 compounds, 0.02% hits. TRPML1-inducible cells, Ca2+ dye fluorescence, FDSS; hits give low values; inhibition of EC80 agonist-evoked calcium signal. Q9GZU1; in the data active means activity change below about -50%; inconclusive means about -30% to -50%; inactive means above about -30%;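 note: stimulus is agonist 54-4 at its EC80 concentration; % is set by controls: 0 for no effect and ±100 for the full control effect; the text of the record puts the active cut at -80%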
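TRPML1-DL cells, Tet-induced overnight (~16 h, 37 °C) at 1,500 cells/well, were loaded with Ca8 no-wash dye plus quencher for 45-90 min at room temperature. Compounds were pinned during FDSS kinetic reading; agonist 54-4 at EC80 (4 uM final) then added.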
An asterisk follows results filed as active.

COc1c(Cl)cc(C(=O)Nc2ccc(Cl)cn2)cc1Cl was read as TRPV1 PAM -8, D2 potentiator -36, TRPML1 agonist 1.4, Six1-Eya2 blk 11, CtBP-E1A blk 21 and TRPML1 blocker -4.
Screening Cc1ccc(-c2nc3ncccc3o2)cc1NC(=O)c1cccs1 returned TRPV1 PAM -8, D2 potentiator 0, TRPML1 agonist 1.8, Six1-Eya2 blk -2, CtBP-E1A blk -6 and TRPML1 blocker -4.
Screening O=C(NC(=S)Nc1cccc2cc(O)ccc12)c1ccco1 returned TRPV1 PAM 0, D2 potentiator -6, TRPML1 agonist 2.1, Six1-Eya2 blk -7, CtBP-E1A blk -13 and TRPML1 blocker -59*.
C1=C\CCC2(OCCO2)C2(CC/1)OCCO2 was read as D2 potentiator 1, TRPML1 agonist 0.8, Six1-Eya2 blk -1, CtBP-E1A blk 3 and TRPML1 blocker 24.
For Cc1ccccc1OCc1nnc(SCc2nc3ccccc3c(=O)[nH]2)n1C the results were TRPV1 PAM 2, D2 potentiator 3, TRPML1 agonist 0.5, Six1-Eya2 blk 13, CtBP-E1A blk -15 and TRPML1 blocker -6.
`CCc1ccc(C(=O)Nc2nc3ccccc3[nH]2)cc1` gave TRPV1 PAM 9, D2 potentiator -24, TRPML1 agonist 0.6, Six1-Eya2 blk -1, CtBP-E1A blk -8 and TRPML1 blocker 38.
`Cn1c(SCC(=O)N2c3ccccc3Sc3ccc(Cl)cc32)nnc1-c1ccco1` gave TRPV1 PAM 11, D2 potentiator 5, TRPML1 agonist 3.7, Six1-Eya2 blk -1, CtBP-E1A blk 7 and TRPML1 blocker 2.
`CCc1ccc(CN(C)C(=O)c2cc(COc3cccc4cnccc34)on2)cc1` gave TRPV1 PAM -5, D2 potentiator -12, TRPML1 agonist 3.3, Six1-Eya2 blk -8 and TRPML1 blocker 44.
Screening Cc1cc(C)c(OCCOCCN2CCNCC2)c(C)c1 returned TRPV1 PAM -16, D2 potentiator -13, TRPML1 agonist -0.1, Six1-Eya2 blk -1, CtBP-E1A blk 1 and TRPML1 blocker 4.
For O=C(N=C1SC2CS(=O)(=O)CC2N1Cc1ccccc1)c1ccccc1 (configuration not stated) the results were D2 potentiator -2, TRPML1 agonist -0.1, Six1-Eya2 blk 5, CtBP-E1A blk -1 and TRPML1 blocker 9.

6 entries picked at random from the list so far, as already listed:
`Cn1c(SCC(=O)N2c3ccccc3Sc3ccc(Cl)cc32)nnc1-c1ccco1` gave TRPV1 PAM 11, D2 potentiator 5, TRPML1 agonist 3.7, Six1-Eya2 blk -1, CtBP-E1A blk 7 and TRPML1 blocker 2.
Screening O=C(NC(=S)Nc1cccc2cc(O)ccc12)c1ccco1 returned TRPV1 PAM 0, D2 potentiator -6, TRPML1 agonist 2.1, Six1-Eya2 blk -7, CtBP-E1A blk -13 and TRPML1 blocker -59*.
`CCc1ccc(C(=O)Nc2nc3ccccc3[nH]2)cc1` gave TRPV1 PAM 9, D2 potentiator -24, TRPML1 agonist 0.6, Six1-Eya2 blk -1, CtBP-E1A blk -8 and TRPML1 blocker 38.
For Cc1ccccc1OCc1nnc(SCc2nc3ccccc3c(=O)[nH]2)n1C the results were TRPV1 PAM 2, D2 potentiator 3, TRPML1 agonist 0.5, Six1-Eya2 blk 13, CtBP-E1A blk -15 and TRPML1 blocker -6.
For O=C(N=C1SC2CS(=O)(=O)CC2N1Cc1ccccc1)c1ccccc1 (configuration not stated) the results were D2 potentiator -2, TRPML1 agonist -0.1, Six1-Eya2 blk 5, CtBP-E1A blk -1 and TRPML1 blocker 9.
COc1c(Cl)cc(C(=O)Nc2ccc(Cl)cn2)cc1Cl was read as TRPV1 PAM -8, D2 potentiator -36, TRPML1 agonist 1.4, Six1-Eya2 blk 11, CtBP-E1A blk 21 and TRPML1 blocker -4.

Carrying on.
For COc1ccc(-n2ncc(C(=O)N3CCN(c4ccc(F)cc4)CC3)c2C)cc1 the results were TRPV1 PAM -13, D2 potentiator -4, TRPML1 agonist 0.2, Six1-Eya2 blk -2, CtBP-E1A blk -1 and TRPML1 blocker 11.
`CCc1ccc(NC(=O)c2ccc3c(c2)C(=O)N(Cc2ccco2)C3=O)cc1` gave TRPV1 PAM -5, D2 potentiator -3, TRPML1 agonist 0.0, Six1-Eya2 blk -10, CtBP-E1A blk -1 and TRPML1 blocker -3.
Screening Cc1ccc(NC(=O)CSc2nc3c(c(=O)[nH]2)CCC3)c(C)c1 returned TRPV1 PAM 5, D2 potentiator -5, TRPML1 agonist -1.2, Six1-Eya2 blk 2, CtBP-E1A blk 5 and TRPML1 blocker 3.
Screening CCCOc1ccccc1NC(=O)c1ccc(N)cc1 returned D2 potentiator -1, TRPML1 agonist 0.4, Six1-Eya2 blk -1, CtBP-E1A blk 2 and TRPML1 blocker 15.
For Cc1cc(O)c(N=Nc2ccc(C(=O)O)cc2)cc1C the results were D2 potentiator -1, TRPML1 agonist -0.7, Six1-Eya2 blk -2, CtBP-E1A blk 5 and TRPML1 blocker 7.
`COc1ccc([C@H]2CC(=O)C=C(c3cccc(Cl)c3O)C2)cc1OC` gave TRPV1 PAM 4, D2 potentiator -11, TRPML1 agonist -0.6, Six1-Eya2 blk inconclusive, CtBP-E1A blk inconclusive and TRPML1 blocker 7.
Screening COc1ccc(CC(=O)OCC(=O)Nc2ccc3[nH]c(=O)[nH]c3c2)cc1OC returned D2 potentiator -6, TRPML1 agonist -0.3, Six1-Eya2 blk -10, CtBP-E1A blk -3 and TRPML1 blocker 0.
`O=C(NCCc1c[nH]c2ccccc12)C1CCN(S(=O)(=O)c2ccc(F)cc2)CC1` gave TRPV1 PAM -6, D2 potentiator 6, TRPML1 agonist -0.4, Six1-Eya2 blk 11, CtBP-E1A blk 24 and TRPML1 blocker 6.
Screening CSc1ccccc1OCc1cc(C(=O)N2CCC[C@H]2C(N)=O)no1 returned TRPV1 PAM -3, D2 potentiator -6, TRPML1 agonist 3.6, Six1-Eya2 blk -1 and TRPML1 blocker 14.
For CCN(CC)C(=O)COc1coc(CN2CCN(c3ccccc3F)CC2)cc1=O the results were TRPV1 PAM -4, D2 potentiator -1, TRPML1 agonist -0.9, Six1-Eya2 blk -2, CtBP-E1A blk 3 and TRPML1 blocker 33.
Screening C=CCn1c(CCC)nc2ccccc21 returned TRPV1 PAM -3, D2 potentiator 2, TRPML1 agonist -0.7, Six1-Eya2 blk 7, CtBP-E1A blk 7 and TRPML1 blocker 3.
`COc1cccc2cc(C(=O)N3CCN(C(=O)c4ccccc4)CC3)c(=O)oc12` gave TRPV1 PAM 7, D2 potentiator 7, TRPML1 agonist 0.2, Six1-Eya2 blk 0, CtBP-E1A blk -4 and TRPML1 blocker -6.
COc1cc(NC(=O)c2ccccc2Cl)c2ncccc2c1 was read as TRPV1 PAM -10, D2 potentiator -3, TRPML1 agonist 2.0, Six1-Eya2 blk 12, CtBP-E1A blk 21 and TRPML1 blocker 14.
`O=C(NCc1cccnc1)c1cccc(S(=O)(=O)N2CCCCC2)c1` gave TRPV1 PAM -15, D2 potentiator -8, TRPML1 agonist 0.2, Six1-Eya2 blk 0, CtBP-E1A blk 6 and TRPML1 blocker 36.
Screening CCOc1cc(-c2cc(-c3ccccc3)nc(N)c2C#N)ccc1O returned TRPV1 PAM -2, D2 potentiator -22, TRPML1 agonist -0.1, Six1-Eya2 blk -1, CtBP-E1A blk 6 and TRPML1 blocker -13.
Cc1ccccc1NC(=O)NCC1CCN(C(=O)OC(C)(C)C)CC1 was read as TRPV1 PAM -2, D2 potentiator -13, TRPML1 agonist -0.1, Six1-Eya2 blk 13, CtBP-E1A blk 9 and TRPML1 blocker -3.
`Cc1nonc1NC(=O)CSc1nc(C23CC4CC(CC(C4)C2)C3)nc2ccccc12` gave TRPV1 PAM -1, D2 potentiator -12, TRPML1 agonist -0.3, Six1-Eya2 blk 2, CtBP-E1A blk -1 and TRPML1 blocker 26.
Screening O=c1oc(CCCO)cc2ccc(Br)cc12 returned D2 potentiator -1, TRPML1 agonist -0.4, Six1-Eya2 blk 0, CtBP-E1A blk 3 and TRPML1 blocker 8.
Screening CCc1ccc(NC2=NCC(=O)N2c2ccc3c(c2)OCCO3)cc1 returned TRPV1 PAM 5, D2 potentiator -22, TRPML1 agonist -0.5, Six1-Eya2 blk -2, CtBP-E1A blk 5 and TRPML1 blocker -5.
For CCOC(=O)c1oc2cc(O)ccc2c(=O)c1-c1ccc(OC)cc1 the results were TRPV1 PAM -18, D2 potentiator 23, TRPML1 agonist -0.6, Six1-Eya2 blk 4, CtBP-E1A blk -2 and TRPML1 blocker -3.
O=C(NCc1ccccc1)c1onc(CSc2ccc(Cl)cc2)c1C(=O)NCC1CC1 was read as TRPV1 PAM 8, D2 potentiator -1, TRPML1 agonist 0.2, Six1-Eya2 blk 1 and TRPML1 blocker -2.
Screening C/C=C/c1ccc(OCCCCOc2c(OC)cccc2OC)c(OC)c1 returned TRPV1 PAM -9, D2 potentiator 3, TRPML1 agonist 0.4, Six1-Eya2 blk 5, CtBP-E1A blk 35 and TRPML1 blocker 1.
For COc1cccc(NC(=O)c2cnsn2)c1 the results were TRPV1 PAM -1, D2 potentiator -2, TRPML1 agonist -0.5, Six1-Eya2 blk 6, CtBP-E1A blk -3 and TRPML1 blocker -14.
Cc1ccc(Cn2c(Sc3nccc(C)n3)nc3c2c(=O)[nH]c(=O)n3C)cc1 was read as TRPV1 PAM 2, D2 potentiator -14, TRPML1 agonist -0.2, Six1-Eya2 blk 9, CtBP-E1A blk 3 and TRPML1 blocker 3.
`CC(=O)NC(CC(=O)Nc1ccc(S(=O)(=O)Nc2nccs2)cc1)c1ccccc1` (configuration not stated) gave TRPV1 PAM 13, D2 potentiator -24, TRPML1 agonist -0.1, Six1-Eya2 blk 10, CtBP-E1A blk 6 and TRPML1 blocker 3.
For Clc1ccc(Cn2nnc(-c3ccc(N4CCOCC4)cc3)n2)cc1 the results were TRPV1 PAM 10, D2 potentiator -4, TRPML1 agonist -0.5, Six1-Eya2 blk 0, CtBP-E1A blk 2 and TRPML1 blocker -18.
`COc1cc(NC(=O)N2CCc3nc(Nc4cc(Cl)cc(Cl)c4)ncc3C2)cc(OC)c1OC` gave D2 potentiator -2, TRPML1 agonist -0.7, Six1-Eya2 blk -13 and CtBP-E1A blk -14.
Cn1c(=O)cc(OCCCC(=O)N2CCCCC2)c2ccccc21 was read as TRPV1 PAM -5, D2 potentiator -3, TRPML1 agonist 0.1, Six1-Eya2 blk -1, CtBP-E1A blk -1 and TRPML1 blocker 1.
`COc1ccc(S(=O)(=O)N2CCOC2CNC(=O)C(=O)NCCc2ccccc2)cc1` (configuration not stated) gave TRPV1 PAM -23, D2 potentiator 4, TRPML1 agonist 0.8, Six1-Eya2 blk -1, CtBP-E1A blk 0 and TRPML1 blocker 11.
For CCOC(=O)C1C(=O)OC(C)(C)C1C(C)C(=O)c1ccc(C)cc1C (configuration not stated) the results were TRPV1 PAM -17, D2 potentiator 1, TRPML1 agonist 1.7, Six1-Eya2 blk 3, CtBP-E1A blk 0 and TRPML1 blocker -9.
Screening CCCCNC(=O)c1ccc(NC(=O)C2CCCO2)cc1 (configuration not stated) returned TRPV1 PAM 4, D2 potentiator 1, TRPML1 agonist 0.4, Six1-Eya2 blk 7, CtBP-E1A blk -3 and TRPML1 blocker -13.
